BJeLR viability = BJeLR cell viability reduction. BJeLR fibroblasts viability, CellTiterGlo ATP luminescence, 48 h; HRASV12, hTERT and SV40 LT/ST transformed. 30,000 tested, 0.64% active. AID 2275. viability loss activity score, % (concentration not given with the values); in the data active = viability loss activity score above about 50%; about a fifth of its hits are not listed in these tables;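 also: higher score means fewer live cells and less ATP luminescence; stock transfer was 50 or 100 nL into about 30 µL; 0% = vehicle wells and 100% = a reference killing control; one replicate is shown; the record names a cut of 85%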
A1 inhib = inhibitors of A1 | MEF A1-2A-BIM cells, caspase-Glo luminescence, 3 h; percent of clofoctol signal, DMSO as zero | caspase activation, % (no concentration beside the values) | 21,000 tested, 0.51% active;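 active = most replicate scores above 10, or exactly half above 10 with mean activity above 10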;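 also: effector caspase 3 and 7 activity cleaving a DEVD luciferin substrate; 50 nL library stock added to about 30 µL; numbers are from one replicate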
* = called active by the depositor; nt = no result given. These rows are one share of the data (hit frequency here may not be typical).

Values run as follows: BJeLR viability, A1 inhib
> C[C@H]1CN([C@@H](C)CO)C(=O)c2cc(NC(=O)Nc3ccc4c(c3)OCO4)ccc2O[C@@H]1CN(C)C(=O)Nc1ccccc1
 : 4.5, -0.6
> Cc1ccc(S(=O)(=O)Nc2ccc3c(c2)C(=O)N([C@@H](C)CO)C[C@@H](C)[C@@H](CN(C)C)O3)cc1
 : 2.8, -0.6
> C[C@@H]1CN([C@@H](C)CO)C(=O)c2cccc(NC(=O)c3ccncc3)c2O[C@H]1CN(C)Cc1ccc(-c2ccccc2)cc1
 : 8.3, nt
> C[C@H](CO)N1C[C@H](C)[C@@H](CN(C)S(=O)(=O)c2cn(C)cn2)Oc2c(NC(=O)C3CCOCC3)cccc2C1=O
 : -9.3, nt
> CC(C)C(=O)N(Cc1ccccc1)c1ccccn1
 : 3.7, -0.7
> CC(C)NC(=O)Nc1cccc2c1O[C@H](CN(C)C(=O)NC(C)C)[C@@H](C)CN([C@@H](C)CO)C2=O
 : 4.6, nt
> COc1ccc(O)c(-c2cnc(=S)[nH]c2-c2cc(OC)ccc2OC)c1
 : -0.5, -0.4
> COc1ccc(S(=O)(=O)Nc2cccc3c2O[C@H](CN(C)S(=O)(=O)c2c(C)noc2C)[C@@H](C)CN([C@H](C)CO)C3=O)cc1
 : 7.2, nt
> C[C@@H]1CN([C@@H](C)CO)C(=O)c2cc(NC(=O)Cc3cn(C)c4ccccc34)ccc2O[C@@H]1CN(C)Cc1ccc(-c2ccccc2)cc1
 : -0.1, -0.5
> Cc1ccc(-n2cnc3cc(NC(=O)c4ccccc4)ccc32)cc1
 : -1.7, 0.1
> CC(=O)N1C(=N)S/C(=C\c2cc3ccccc3nc2Sc2ccccc2)C1=O
 : -1.5, 0.1
> C[C@H](CO)N1C[C@H](C)[C@H](CN(C)Cc2ccc3c(c2)OCO3)Oc2c(NS(=O)(=O)c3ccc(Cl)cc3)cccc2C1=O
 : -1.8, nt
> COC(=O)/C=C1/NCC(OC(=O)c2ccc(C(C)(C)C)cc2)CNC1=O (stereo unspecified)
 : 1.3, -0.8
> COc1ccc(NC(=O)N(C)C[C@@H]2Oc3ccc(NS(=O)(=O)c4ccc(C)cc4)cc3C(=O)N([C@H](C)CO)C[C@@H]2C)cc1
 : 9.6, 0.1
> C[C@H](CO)N1C[C@H](C)[C@H](CN(C)Cc2ccc(C(F)(F)F)cc2)Oc2c(NC(=O)C3CCCCC3)cccc2C1=O
 : 9.1, nt
> Cc1ccc(S(=O)(=O)Nc2ccc3c(c2)C(=O)N([C@@H](C)CO)C[C@@H](C)[C@H](CN(C)Cc2ccc(C(F)(F)F)cc2)O3)cc1
 : -1.9, 0.4
> Cc1ccc(S(=O)(=O)N(C)C[C@H]2Oc3c(NC(=O)Nc4c(C)noc4C)cccc3C(=O)N([C@H](C)CO)C[C@@H]2C)cc1
 : 0.5, nt
> CC1CC(OC(=O)C(O)c2ccccc2)CC(C)(C)N1C (stereo unspecified)
 : 5.0, -0.2
> C[C@H](CO)N1C[C@H](C)[C@@H](CN(C)Cc2ccc(C(=O)O)cc2)Oc2ccc(NC(=O)Cn3cnnn3)cc2C1=O
 : 0.8, -0.2
> C[C@H](CO)N1C[C@H](C)[C@@H](CN(C)C(=O)Nc2ccccc2)Oc2c(NS(C)(=O)=O)cccc2C1=O
 : 4.5, nt
> Cc1noc(C)c1NC(=O)N(C)C[C@H]1Oc2ccc(NC(=O)NC(C)C)cc2C(=O)N([C@H](C)CO)C[C@H]1C
 : -5.2, -0.6
> Cc1noc(C)c1NC(=O)N(C)C[C@H]1Oc2c(NC(=O)Nc3ccc(C(F)(F)F)cc3)cccc2C(=O)N([C@H](C)CO)C[C@@H]1C
 : 0.5, nt
> O=C(Cc1ccccc1)Sc1nc2ccccc2[nH]1
 : 4.2, -4.9
> O=C(c1cc(C2CC2)[nH]n1)n1ccnc1
 : -0.4, nt
> COc1ccc(NC(=O)N(C)C[C@H]2Oc3ccc(NC(=O)C4CCCCC4)cc3C(=O)N([C@@H](C)CO)C[C@H]2C)cc1
 : 3.8, 0.1
> CN(Cc1ccccc1)c1nnc(NC(=O)c2cc(-c3ccc(Br)cc3)on2)s1
 : -2.2, -1.8
> CC[N+](C)(CC)Cc1ccccc1
 : -2.6, 0.2
> COc1cccc(OC)c1C(=O)N=c1sc2cc(S(C)(=O)=O)ccc2n1C
 : 5.9, 1.2
> Cc1nc(C)c(S(=O)(=O)NCc2ccc(N3CCN(C)CC3)cc2)s1
 : 2.5, 0.7
> C[C@@H]1CN([C@@H](C)CO)C(=O)c2cccc(NC(=O)Nc3ccc4c(c3)OCO4)c2O[C@H]1CN(C)Cc1ccc(Cl)c(Cl)c1
 : -1.8, nt
> C[C@@H]1CN([C@H](C)CO)C(=O)c2cccc(N(C)C)c2O[C@@H]1CN(C)Cc1ccc(C(=O)O)cc1
 : -1.6, nt
> CC1=CCC(C(=O)O)C(C(=O)Nc2ccc(-c3nc4ccc(C)cc4s3)cc2)C1 (stereo unspecified)
 : 7.2, -5.9
> CC(C)C(=O)N(c1ccc2oc(=O)sc2c1)S(=O)(=O)c1ccccc1
 : -7.2, nt
> Cc1cc(=O)nc2c3ccccc3n(C(C)C(=O)Nc3c(F)c(F)cc(F)c3F)n12 (stereo unspecified)
 : -4.8, -0.4
> O=S(=O)(NCCc1nnc2ccc(SCc3ccccc3)nn12)c1ccccc1
 : 4.0, -0.3
> CC(C)NC(=O)N(C)C[C@@H]1Oc2c(NC(=O)c3ccncc3)cccc2C(=O)N([C@H](C)CO)C[C@H]1C
 : 2.7, nt
> C[C@@H]1CN([C@H](C)CO)C(=O)c2cccc(NC(=O)c3ccc(-c4nccs4)cc3)c2O[C@@H]1CN(C)S(=O)(=O)c1cn(C)cn1
 : -4.3, nt
> C[C@H](CO)N1C[C@H](C)[C@@H](CN(C)S(=O)(=O)c2ccc(Cl)cc2)Oc2c(NC(=O)c3nc4ccccc4s3)cccc2C1=O
 : 22.1, nt
> CCN1C2=C(C(=O)CCC2)C(c2cccc(O)c2)C2=C1CCCC2=O
 : -2.4, -0.6
> O=C(Nc1nc(-c2ccc(Cl)c(Cl)c2)cs1)C1CC1
 : 6.9, -0.9

The final three records of the section before are carried over, then new ones follow:
Values run as follows: BJeLR viability, A1 inhib
> C[C@H](CO)N1C[C@H](C)[C@@H](CN(C)S(=O)(=O)c2ccc(Cl)cc2)Oc2c(NC(=O)c3nc4ccccc4s3)cccc2C1=O
 : 22.1, nt
> CCN1C2=C(C(=O)CCC2)C(c2cccc(O)c2)C2=C1CCCC2=O
 : -2.4, -0.6
> O=C(Nc1nc(-c2ccc(Cl)c(Cl)c2)cs1)C1CC1
 : 6.9, -0.9
> Cc1ccc(NS(=O)(=O)CC23CCC(CC2=O)C3(C)C)cc1 (stereo unspecified)
 : 2.4, 0.2
> Cc1[nH]c2ccccc2c1Sc1ccccc1
 : 1.0, 10.5*
> CNC[C@@H]1Oc2ccc(NC(=O)c3ccncc3)cc2C(=O)N([C@@H](C)CO)C[C@@H]1C
 : 1.3, 0.4
> COc1c2c(cc3occ(-c4ccc5c(c4)OCO5)c(=O)c13)OC(C)(C)C=C2
 : 0.9, -0.7
> CC(C)NC(=O)N(C)C[C@@H]1Oc2c(NC(=O)C3CCOCC3)cccc2C(=O)N([C@@H](C)CO)C[C@H]1C
 : 5.4, nt
> COc1ccc(CC(=O)N2CCN(c3ncccn3)CC2)cc1OC
 : 2.8, 0.4
> Cc1ccc(-c2nc(C#N)c(NCCCn3ccnc3)o2)cc1
 : -1.2, nt
> O=c1[nH]c2cc([N+](=O)[O-])c([N+](=O)[O-])cc2[nH]c1=O
 : -3.4, 1.5
> C[C@H]1CN([C@@H](C)CO)C(=O)c2cc(N(C)C)ccc2O[C@H]1CN(C)Cc1ccncc1
 : -0.3, -0.2
> C=C(C)C(=O)O[C@H]1[C@H]2C(=C)C(=O)O[C@@H]2C[C@@H](C)[C@@H]2O[C@@H]2C(=O)[C@](C)(O)[C@@H]1OC(C)=O
 : 32.4, 1.2
> Cc1cc(C)cc(OCCn2c(-c3ccc(Cl)cc3)nc3ccccc3c2=O)c1
 : 0.2, nt
> Cc1ccc(S(=O)(=O)Nc2cccc3c2O[C@H](CN(C)Cc2ccccc2)[C@H](C)CN([C@H](C)CO)C3=O)cc1
 : 3.0, nt
> CN(C(=O)COc1cc(C(F)(F)F)n(C)n1)c1ccccc1
 : 1.8, 0.3
> CCC(Sc1n[nH]c(=O)[nH]c1=O)C(=O)O (stereo unspecified)
 : -5.0, 0.2
> C=CCn1c(-c2cccs2)nc(-c2ccccc2)c1-c1ccccc1
 : 5.7, nt
> CC(C)NC(=O)N(C)C[C@@H]1Oc2c(NS(=O)(=O)c3cccs3)cccc2C(=O)N([C@@H](C)CO)C[C@@H]1C
 : -1.7, nt
> COc1cc2c(c(O)c1OC)C(=O)CC(c1ccc(O)cc1)O2 (stereo unspecified)
 : -1.6, 0.7
> O=C(Cn1sc2ccccc2c1=O)N1CCN(C(=O)c2ccco2)CC1
 : 1.3, -0.7
> CC(=C1C(=O)c2ccccc2C1=O)N1CCC(Cc2ccccc2)CC1
 : 2.3, 0.6
> O=C(CN1C(=O)/C(=C/c2ccccc2)SC1=S)NC1CCCC1
 : -1.5, 1.1
> CCOC(=O)N1CCC(n2c(SCC(=O)Nc3ccc(C)cc3)nc3ccccc3c2=O)CC1
 : 18.7, 1.9
> C[C@H](CO)N1C[C@H](C)[C@@H](CN(C)Cc2ccc(-c3ccccc3)cc2)Oc2ccc(NS(C)(=O)=O)cc2C1=O
 : -2.1, -0.8
> CN=C(C)/C(C(=O)OC)=C(/O)c1ccc(Cl)cc1Cl
 : -7.0, 0.7
> CCc1ccc(NC(=O)Cn2cnc3c(cnn3-c3ccccc3)c2=O)cc1
 : 2.7, 0.1
> COC(=O)C1=C(C)NC(=S)NC1c1cc2c(cc1Br)OCO2 (stereo unspecified)
 : -2.7, 0.1
> C[C@H](CO)N1C[C@H](C)[C@@H](CN(C)Cc2ccc(Cl)c(Cl)c2)Oc2c(NS(=O)(=O)c3ccccc3)cccc2C1=O
 : -3.6, nt
> CC1(C)CC(=O)c2cc(-c3ccccc3)n(-c3ccc(S(N)(=O)=O)cc3)c2C1
 : -0.8, 0.2
> COc1ccc(S(=O)(=O)N(C)C[C@H]2Oc3ccc(NC(=O)Nc4ccc(C(F)(F)F)cc4)cc3C(=O)N([C@H](C)CO)C[C@H]2C)cc1
 : 0.7, 0.2
> C[C@@H]1CN([C@H](C)CO)C(=O)c2cc(NC(=O)C3CC3)ccc2O[C@@H]1CN(C)Cc1ccc(-c2ccccc2)cc1
 : 2.4, 1.1
> C[C@@H]1CN([C@H](C)CO)C(=O)c2cccc(NS(=O)(=O)c3ccc(F)cc3)c2O[C@H]1CN(C)C(=O)Nc1ccc2c(c1)OCO2
 : 4.7, nt

Whole records, looked up by structure. Order of screens: BJeLR viability	A1 inhib
Results for COC(=O)C1=C(C)NC(=S)NC1c1cc2c(cc1Br)OCO2 (stereo unspecified) : -2.7	0.1
Results for C[C@H](CO)N1C[C@H](C)[C@@H](CN(C)Cc2ccc(-c3ccccc3)cc2)Oc2ccc(NS(C)(=O)=O)cc2C1=O : -2.1	-0.8

(cont.)
Values run as follows: BJeLR viability, A1 inhib
> C/C=C1/CN[C@H]2Cc3c([nH]c4ccccc34)C(=O)C[C@H]1C2C(=O)OC (stereo partly specified)
 : -10.7, 0.2
> CC(=O)Nc1ccc(NC(=O)c2ccnn2C)cc1
 : 6.6, -1.4
> COc1ccc(CN(C)C[C@H]2Oc3ccc(NS(=O)(=O)c4ccc(C)cc4)cc3C(=O)N([C@H](C)CO)C[C@H]2C)cc1
 : -2.7, -0.1
> Cc1cc(Br)ccc1NC(=O)c1cc2c(s1)-c1ccccc1OC2
 : -1.2, -0.4
> O=C(NCc1ccccc1)C1Sc2nnc(-c3ccccc3)n2NC1c1ccc(F)cc1 (stereo unspecified)
 : 0.6, 6.5
> Cc1noc(C)c1S(=O)(=O)Nc1cccc2c1O[C@H](CN(C)S(=O)(=O)c1cn(C)cn1)[C@H](C)CN([C@@H](C)CO)C2=O
 : -1.6, nt
> COc1cc(/C=N/n2c(C)nc3c(ncn3-c3ccccc3)c2=O)cc(OC)c1OC
 : 1.5, -0.2
> CSc1ccc(N=CN2C(=O)c3ccccc3C2=O)cc1
 : -3.9, -5.8
> C[C@@H]1CN([C@@H](C)CO)C(=O)c2cc(NC(=O)Nc3ccc(C(F)(F)F)cc3)ccc2O[C@@H]1CN(C)C(=O)NC1CCCCC1
 : 1.7, 0.0
> Cc1ccc(S(=O)(=O)N(C)C[C@@H]2Oc3c(NC(=O)c4cc(C)nn4C)cccc3C(=O)N([C@@H](C)CO)C[C@H]2C)cc1
 : -6.6, nt
> COc1ccc(NC(=O)N(C)C[C@@H]2Oc3c(NC(=O)Nc4ccc(C(F)(F)F)cc4)cccc3C(=O)N([C@@H](C)CO)C[C@H]2C)cc1
 : -0.9, nt
> C[C@@H]1CN([C@@H](C)CO)C(=O)c2cc(NC(=O)C3CCCCC3)ccc2O[C@@H]1CN(C)Cc1ccncc1
 : 0.7, 0.5
> COc1ccc(-c2nnc3sc(NC(=O)C(C)C)nn23)cc1
 : 2.3, 0.5
> Cc1ccc(CSc2nc3ccccc3c(=O)n2Cc2ccccc2)cc1
 : -5.6, -1.1
> C[C@@H]1CN([C@@H](C)CO)C(=O)c2cc(NC(=O)NC3CCCCC3)ccc2O[C@@H]1CN(C)S(=O)(=O)c1ccccc1
 : -0.3, 0.2
> CCCC/C(O)=C/c1nc2ccccc2[nH]c1=O
 : -2.6, nt
> COc1ccc(S(=O)(=O)N(C)C[C@H]2Oc3ccc(NC(=O)Nc4c(C)noc4C)cc3C(=O)N([C@H](C)CO)C[C@@H]2C)cc1
 : -0.9, -0.6
> O=C(Nc1ccccc1)OCc1cc(-c2ccc(Cl)cc2)oc1C(F)(F)F
 : -5.4, -1.2
> CCCN1CCN(C(=O)Cn2cnc3sc(C)c(S(=O)(=O)N4CCC(C)CC4)c3c2=O)CC1
 : -1.9, nt
> Cc1cccc(N(C)C(=S)Oc2ccc3ccccc3c2)c1
 : -0.9, 1.0

Assay outcomes: PubChem, Broad Institute
